Kir21 inh: Kir2.1 (mouse) channel inhibition; P35561; HEK293-Kir2.1, FluxOR thallium flux fluorescence; hits give low values; B-score at 10 µM; 310,000 compounds, 0.85% hits; AID 1672;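 active = fluorescence ratio B-score at or below minus 3 SD of library scores, with starting-brightness B-score within 2 SD, cut at about -4.2 in these data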;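 also: channel flux triggered by added potassium and thallium sulfate stimulus; B-score of peak minus minimum fluorescence over baseline after thallium stimulus; more negative B-score means stronger Kir2.1 block with less thallium influx; some compounds called inactive have numbers as strong as hits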
Target sequence (P35561 whole entry, looked up): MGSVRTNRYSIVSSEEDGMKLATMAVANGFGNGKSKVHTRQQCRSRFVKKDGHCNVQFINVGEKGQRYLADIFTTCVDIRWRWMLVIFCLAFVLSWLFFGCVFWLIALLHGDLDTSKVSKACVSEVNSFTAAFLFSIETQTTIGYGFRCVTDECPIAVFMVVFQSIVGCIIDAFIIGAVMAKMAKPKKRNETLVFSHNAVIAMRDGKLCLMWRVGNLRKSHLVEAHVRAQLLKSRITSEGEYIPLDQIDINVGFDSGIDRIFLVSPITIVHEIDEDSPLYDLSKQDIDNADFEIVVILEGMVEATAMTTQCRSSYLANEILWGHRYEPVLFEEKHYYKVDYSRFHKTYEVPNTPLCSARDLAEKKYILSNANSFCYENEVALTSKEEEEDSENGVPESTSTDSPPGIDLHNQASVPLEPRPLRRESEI
* = called active by the depositor.

SMILES	Kir21 inh
O=C(O)CCN1C(=O)C2C3CC(C2C1=O)C1C(c2ccccc2)c2sc(=O)[nH]c2SC31 (stereo not drawn)	0.11
CCOc1ccc(C(=O)NC(Cc2ccccc2)C(=O)OC)cc1 (stereo not drawn)	0.7
COc1ccc(NC(=O)Cc2coc3cc(C)ccc23)cn1	0.54
Cc1ccc(-c2cnn(-c3ccccc3)c2N)cc1	2.04
CCC(=O)Nc1nnc(S(=O)(=O)N(C)c2cc(C)cc(C)c2)s1	-1.33
Cc1ccc(OCC(O)Cn2c(NCCc3ccccc3)nc3c2c(=O)[nH]c(=O)n3C)cc1 (stereo not drawn)	-1.36
Cc1ccc(CS(=O)(=O)Cc2ccc(C(=O)NCc3ccccn3)o2)cc1	0.08
CN1/C(=C\C=N\O)C(C)(C)c2ccccc21	-0.15
O=[N+]([O-])c1cccn2cc(-c3ccc(Br)cc3)nc12	-0.71
O=c1[nH]c(CSc2nnc(-c3ccncc3)n2Cc2ccco2)nc2ccccc12	1.66
Cc1ccc(N2C(=N)SCC2=O)cc1Cl	-0.35
COc1ccc(/C=N/NC(=O)c2ccc(Br)cc2)cc1CN1CCOCC1	2.09
Cc1ccc(CN(C)C(=O)c2ccccc2Oc2ccccc2)o1	-2.4
Cc1c(NS(=O)(=O)c2cc(C(=O)NCC3CCCO3)cc(Cl)c2Cl)c(=O)n(-c2ccccc2)n1C (stereo not drawn)	0.83
CCOC(=O)/C(=N\Nc1cc(Cl)ccc1Cl)N1CCN(C)CC1	-2.4
OCc1nc2ccccc2n1CCc1ccccc1	-2.28
NC(=S)N/N=C1\CC(n2nnnc2-c2ccccc2)C2COC1O2 (stereo not drawn)	-0.52
CC(=O)Nc1ccc(NC(=O)CSc2ccc(-c3ccc4c(c3)OCO4)nn2)cc1	-0.22
COc1ccc(Br)cc1/C=N/NC(=O)C[n+]1ccccc1	-0.59
CCc1ccc(OCCCC(=O)Nc2nccs2)cc1	0.06
O=C(NCc1ccccn1)C(=O)NCC1OCCCN1S(=O)(=O)c1ccc(F)cc1 (stereo not drawn)	-1.57
COc1ccc(CNC(=O)CSc2n[nH]c(C)c2[N+](=O)[O-])cc1	-2.41
CN(C)CCNC(=O)c1[nH]nc2c1CCc1ccccc1-2	-0.63
Cc1ccc(NCc2nnc(SCC(=O)N(Cc3ccccc3)C(C)(C)C)o2)c(C)c1	-1.11
O=C(NN=C1CCCC1)c1sc2ccccc2c1Cl	-0.77
COCc1cc(C)[nH]c(=O)c1C(=O)NC12CC3CC(CC(C3)C1)C2	2.1
O=S(=O)(c1ccc(Cl)cc1)c1cnc2ccccc2n1	0.8
O=C(CSc1nccc(=O)[nH]1)NCc1ccc2c(c1)OCO2	-2.31
C=C(C)CN(CC)C(=O)CC1C(=O)NCCN1Cc1c(F)cccc1Cl (stereo not drawn)	1.45
Cc1cccc(C(=O)NCC(=O)N2CC(=O)Nc3ccccc32)c1	0.81
O=C(CNC(=O)N1CC(=O)Nc2ccccc21)NCc1cccc(Cl)c1	-0.25
COc1cccc(C2CC(=O)N3CN(c4ccccc4F)CSC3=C2C#N)c1 (stereo not drawn)	-0.06
CCOC(=O)c1cc(-c2ccc(C)cc2)n(CCC(=O)NCCN(C)C)c1C	-0.09
COCCc1nc2ccc(C(=O)N(C)Cc3cccc(-n4cccn4)c3)cc2o1	-2.39
COc1cc2c(cc1OC)C(C)N(C(=O)c1c(C)noc1C)CC2 (stereo not drawn)	0.5
FC(F)(F)c1cc(C(F)(F)F)n2nc(-c3sccc3-n3cccc3)cc2n1	-1.44
NC(=O)C1(N2CCCCC2)CCN(c2ccc3nnc(-c4ccccc4)n3n2)CC1	0.3
Cc1ccc(-n2c(CNc3cccc(Cl)c3)n[nH]c2=S)cc1	-0.17
O=C(Nc1nnc(SCc2ccc(Cl)cc2)s1)C1CCCO1 (stereo not drawn)	0.45
O=C(NC1CCCCCC1)c1ccc(CS(=O)Cc2cccc(Cl)c2)o1 (stereo not drawn)	0.14
CC(=O)CSc1nnc(-c2ccco2)n1-c1ccccc1	-0.99
COc1ccc(OC(=O)c2ccncc2)cc1	1.73
CCCCNC(=O)CCCCn1c(=S)[nH]c2c([nH]c3ccc(OC)cc32)c1=O	-1.83
CCC(C)Nc1ncnc2c1cnn2Cc1ccc(Cl)cc1 (stereo not drawn)	-0.17
O=c1oc2ccccc2c(Nc2cccc3cccnc23)c1[N+](=O)[O-]	1.43
CC1(C)CC(NC(=O)c2ccccc2)CC(C)(C)N1	0.32
CCN1CCN(c2nc(-c3ccccc3Cl)nc3ccccc23)CC1	-2.49
CCN(CC)c1cc(Cl)c2nonc2c1N	0.06
Cc1cc2ccccn2c1C(=O)c1nc(N2CCOCC2)ncc1Cl	-0.57
CC(=O)NC1=NC(=O)CS1	-1.24
Cc1c(/C=C(\C#N)c2nn(-c3ccccc3)c(N)c2C#N)c2ccccc2n1Cc1ccc(F)cc1	0.69
CC(=O)c1cccc(NC(=O)c2cc(=O)c3ccccc3o2)c1	0.53
CN1CCC(=NNC(=O)CN(c2cccc(Cl)c2)S(C)(=O)=O)CC1	0
Cc1nc(SCC(=O)NCC(F)(F)F)c2c(-c3cccs3)csc2n1	-0.98
O=C(CN1C(=O)S/C(=C\c2ccccc2)C1=O)NNC(=O)c1ccccc1O	0
CC1(C)CNC(=O)c2sc(NC(=O)c3ccccc3)nc2C1	-2.27
CCOC(=O)Nc1ccc(C(=O)/C=C/c2ccccc2)cc1	0.06
CCn1nc(NC(=O)CC(C)C)c2cc3ccc(C)cc3nc21	0.43
COC(=O)c1ccc(NC(=O)Nc2ccc3c(c2)nc(C)n3C)cc1	-0.03
c1ccc(SCCOCCn2cncn2)cc1	-0.12

Three consecutive compounds already listed:
SMILES	Kir21 inh
Cc1nc(SCC(=O)NCC(F)(F)F)c2c(-c3cccs3)csc2n1	-0.98
O=C(CN1C(=O)S/C(=C\c2ccccc2)C1=O)NNC(=O)c1ccccc1O	0
CC1(C)CNC(=O)c2sc(NC(=O)c3ccccc3)nc2C1	-2.27

(further entries)
SMILES	Kir21 inh
COCCCN(Cc1cccs1)S(=O)(=O)c1c[nH]c(C(=O)OC)c1	0.36
Clc1ccccc1Nc1nc(-c2ccncc2)nc2ccccc12	-0.88
CC(=O)Nc1ccc(NC(=O)CSc2nnc(CNc3ccc(F)cc3)n2CC2CCCO2)cc1 (stereo not drawn)	0.69
CC(=O)c1ccc(N2CCN(C(=O)Nc3ccc(F)cc3F)CC2)cc1	1.1
CCC(C)Nc1nc(OC)nc(N(C)C#N)n1 (stereo not drawn)	-1.98
CCCCCCC(=O)Nc1cc2c(C)cc(=O)oc2cc1C	-0.95
CCOc1ccccc1NC(=O)NC(=O)N(C)S(C)(=O)=O	1.93
CC(=O)N1CCC(C(=O)c2ccc(Cl)cc2)CC1	0.35
C/C(Cn1nc([N+](=O)[O-])cc1C)=N\NC(=O)COc1ccccc1[N+](=O)[O-]	0.3
CCOc1ccccc1Nc1ncnc2c1cnn2-c1ccccc1	-1.08
O=C(Nc1nnc(S(=O)(=O)N2CCOCC2)s1)c1cccc(Br)c1	-2.44
COc1ccc(CNC(=O)C(c2cccc(C)c2)N(C(=O)c2csnn2)C2CC2)cc1 (stereo not drawn)	-0.29
O=c1oc2ccccc2cc1NCc1ccccc1O	-0.76
COc1ccc2c(c1)C(=O)CC(O)(C(F)F)O2 (stereo not drawn)	0.87
c1ccc2c(c1)nc1n2CCN1CCN1CCCC1	0.75
COC(=O)CCC(=O)OC1(C)C(=O)C2=CN(C3CC3)C(c3ccc(OC)cc3)=CC2=C(Br)C1=O (stereo not drawn)	0.73
CCN(Cc1ccccc1)S(=O)(=O)c1c(C)n(C)c(=O)n(C)c1=O	-1.01
O=S(=O)(Cc1nc2ccccc2s1)c1ccccc1	0.5
COc1ccc(CN2CCCC(CNC(=O)c3ccc(F)cc3)C2)cc1OC (stereo not drawn)	-0.05
O=c1[nH]nc(CSCc2ccccc2Cl)[nH]1	-0.52

By substructure: the compounds so far containing a CF3 group (2)
SMILES	Kir21 inh
FC(F)(F)c1cc(C(F)(F)F)n2nc(-c3sccc3-n3cccc3)cc2n1	-1.44
Cc1nc(SCC(=O)NCC(F)(F)F)c2c(-c3cccs3)csc2n1	-0.98

The main list resumes, starting 6 compounds before the break.
SMILES	Kir21 inh
c1ccc2c(c1)nc1n2CCN1CCN1CCCC1	0.75
COC(=O)CCC(=O)OC1(C)C(=O)C2=CN(C3CC3)C(c3ccc(OC)cc3)=CC2=C(Br)C1=O (stereo not drawn)	0.73
CCN(Cc1ccccc1)S(=O)(=O)c1c(C)n(C)c(=O)n(C)c1=O	-1.01
O=S(=O)(Cc1nc2ccccc2s1)c1ccccc1	0.5
COc1ccc(CN2CCCC(CNC(=O)c3ccc(F)cc3)C2)cc1OC (stereo not drawn)	-0.05
O=c1[nH]nc(CSCc2ccccc2Cl)[nH]1	-0.52
Cc1nc2sc(C(c3ccc(Cl)cc3)N3CCN(CCO)CC3)c(O)n2n1 (stereo not drawn)	-1.55
CC1CCc2c(C(=O)N3CCN(S(=O)(=O)c4cccs4)CC3)csc2C1 (stereo not drawn)	-1.87
CCOc1ccc(NC(=S)NC(=O)/C=C/c2ccc(C)cc2)c([N+](=O)[O-])c1	0.39
Cc1cc(S(=O)(=O)N2CCN(c3ccccn3)CC2)ccc1F	2.1
CCOc1ccc(CN2CCN(C(=O)c3cccc(F)c3)CC2)cc1	0.56
Cc1cccn2cc(CCNC(=O)c3ccc(Br)o3)nc12	-0.92
CCNC(=S)NNC(=O)c1ccccc1Cl	1.11
O=C(Cc1cccc2ccccc12)NN1C(=O)/C(=C\c2cccnc2)SC1=S	-0.01
CC(Oc1ccc(Cl)cc1Cl)/C(N)=N/O (stereo not drawn)	0
Cc1ccc(OCC(=O)NC(=S)Nc2ccc(S(=O)(=O)Nc3cc(C)on3)cc2)c(Br)c1	0.77
COC(=O)CSc1nc(NC#N)nc(NC(C)(C)C)n1	-0.78
NC(=O)c1c(NC(=O)CSc2nnc(-c3ccco3)n2N)sc2c1CCCC2	1.04
Cn1c(NC(=O)c2ccc3c(c2)OCO3)cc(=O)n(C)c1=O	-0.46
CN(C)c1ccc(/C=N/n2ncc3ccccc32)cc1	1.19
Cc1noc(C)c1COc1ccc(C(=O)N2CCCC(C(N)=O)C2)cc1 (stereo not drawn)	-0.03
COc1ccc(N2CCN(C(CNC(=O)C(=O)NC3CCCC3)c3ccco3)CC2)cc1 (stereo not drawn)	0.07
Clc1ccccc1CN(Cc1ccccc1)c1ncnc2nc[nH]c12	0.01
CCc1cccc2c(C(=S)N3CCCC3)c[nH]c12	0.98
COc1ccc(NCC(=O)Nc2cc(S(=O)(=O)N3CCOCC3)ccc2N2CCOCC2)c(OC)c1	0.13
O=S(=O)(Nc1nnc(C2CCCCC2)s1)c1ccc(F)cc1	-0.74
Cc1ccc(C)c(OCc2ccc(C(=O)N3N=C(C(F)F)CC3(O)C(F)F)o2)c1 (stereo not drawn)	0.82
CCc1nnc(SCc2ccc(OC(C)C)cc2)n1N	0
CCOc1ccc(/C=N/OCC(=O)Nc2ccc(OCc3ccccc3)cc2)cc1OC	0.1
CCOC(=O)N1CCC(N(CCCOC)C(=O)Nc2cccc(OC)c2)CC1	-1.07
Cc1ccnc(NS(=O)(=O)c2ccc(NC(=O)C34CC5CC(C)(CC(C)(C5)C3)C4)cc2)n1	0.99
O=C(Nn1cnnc1)C1Cc2ccccc2CN1S(=O)(=O)c1ccc(F)cc1 (stereo not drawn)	-1.19
CCN1CCN(c2ccc(S(=O)(=O)N3CCCCC3)cc2NC(=O)c2sccc2C)CC1	0.27
Cc1ccc(/C=C/C(=O)NC(=S)Nc2ccccc2C(=O)NC2CCCCC2)cc1	0.21
CCN(CC)C(=O)Nc1cnc2ccccc2c1	-0.23
CCOc1ccc(S(=O)(=O)N(C)CCO)cc1-c1nc2c(C(C)(C)C)nn(C)c2c(=O)[nH]1	-1.69
CCCCOC(=O)C(C#N)c1nc2ccccc2nc1N1CCOCC1 (stereo not drawn)	0.75
C#CCO[C@@H]1C[C@H](n2cnc3c(=O)[nH]c(NC(=O)C(C)C)nc32)O[C@@H]1CO	-1.09
Cc1ccc2oc(-c3ccc(NC(=O)c4cccnc4)cc3)nc2c1	-0.05
CCOc1ccc(CNc2nnnn2C)cc1OC	0.29
CCc1ccc(-n2cc(-c3ccc([N+](=O)[O-])cc3)[nH]c2=S)cc1	0.86
COc1ccc(NC(=O)C(=O)N/N=C(\C)CC(=O)Nc2cc(C)ccn2)c(OC)c1	1.52
C/C(=N\O)c1oc2ccc3c(C)cc(=O)oc3c2c1C	0.35
COc1ccccc1CN1CCN(S(=O)(=O)c2ccc(C)cc2)CC1	-2.48
O=C1Nc2ccccc2Nc2ccccc21	-0.13
Cc1cc(C)c(C)c(S(=O)(=O)N2CCC(C(=O)NNC(=O)c3ccccc3O)CC2)c1C	2.37

Ordered by value in Kir21 inh (lowest first): 3 from the list above.
SMILES	Kir21 inh
O=c1[nH]nc(CSCc2ccccc2Cl)[nH]1	-0.52
CC(Oc1ccc(Cl)cc1Cl)/C(N)=N/O (stereo not drawn)	0
Cc1ccc(OCC(=O)NC(=S)Nc2ccc(S(=O)(=O)Nc3cc(C)on3)cc2)c(Br)c1	0.77

Going on with the list.
SMILES	Kir21 inh
COc1ccccc1OCC(=O)Nc1ccc2c(c1)C(=O)N(CC1CCCO1)C2=O (stereo not drawn)	0.68
COC(=O)c1cccc(N(C(=O)c2ccco2)C(C(=O)NC2CCCC2)c2ccc(N3CCOCC3)cc2)c1 (stereo not drawn)	0.39
COc1cc(CNCCNC(=O)c2nonc2N)ccc1OCc1ccc(Cl)nc1	-1.81
COC(=O)CSc1nc2nc(C)c(Br)cc2[nH]1	0.65
Cc1cc(C(F)(F)F)nn1CC(=O)NCc1cccs1	1.25
Cc1ccc(C(=O)N/C(=C/c2cccs2)C(=O)NCCc2c[nH]c3ccccc23)cc1	0.29
CN(C)c1ccc(/C=C2\NC(=S)N(Cc3ccccc3)C2=O)cc1	-6.13
O=S1(=O)c2cccc3cccc(c23)N1CCBr	-0.85
C=CCn1c(N)c(C(=O)NCCC2=CCCCC2)sc1=S	-1.87
COc1nc(NCC(C)C)nc(Oc2ccc(OCc3ccccc3)nn2)n1	-3.11
COc1cccc(/C=N/NC(=S)NC2CC3CCC2C3)c1OC (stereo not drawn)	-0.83

This is a subset; most or all hits stand in other tables.
